ugtP null kill: kills S. aureus RN4220 lacking UgtP; S. aureus RN4220 ugtP deletion, OD600 growth, 16 h; some inactives read as strong as hits; growth inhibition, % (test concentration not listed); 330,000 compounds, 0.54% hits; AID 1259309;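 active = z-score under -3 and OD600 up to 0.15 on both plates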;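 note: plate controls were untreated wells for no effect and antibiotic for full effect; wells of about 80 µL received 100 nL stock; the first replicate is given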
BJeLR viability: kills HRASV12-expressing BJeLR cells; BJeLR (HRASV12) viability, CellTiter-Glo ATP luminescence, 48 h; reference of the scale not given here; 300,000 compounds, 0.17% hits; AID 1554; inhibition, % (no concentration beside the values);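 active = replicate mean above 50%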;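 note: 50 nL library stock added to about 25 µL; numbers are from one replicate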
Mtb hypoxia rep: Mtb hypoxia fluorescent reporter inhibition; M. tuberculosis hypoxia-regulated fluorescent reporter, fluorescence; fluorescence inhibition, % (concentration not given with the values); 300,000 compounds, 0.1% hits; AID 1159583;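 active = 35 to 45% if threefold the growth effect, above 45% if 1.5-fold the growth effect; inactive = the rest, general growth blockers included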;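 note: wells of about 50 µL received 100 nL stock; 0% = vehicle wells and 100% = reference inhibitor wells; whole bacteria with a GFP reporter of the hypoxia response; strong numbers were not always called active; many hits fall short of the cut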
Bead autofluor: flagged as autofluorescent in microsphere protease counterscreen; compound autofluorescence counterscreen, microsphere flow cytometry; active compounds read high; fluorescence intensity (no concentration beside the values); 360,000 compounds, 3.1% hits;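 active = at least 3 SD above the mean of all compounds, about 16000 in these data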;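 note: 100 nL of 1 mM stock went into each well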
Sa RN4220 lethal: S. aureus RN4220 growth inhibition. inhibition, % (test concentration not listed). OD600, 16 h. 330,000 compounds, 0.33% hits;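 active = z-score of -3 or lower and OD600 up to 0.18 on both plates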;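 note: plate controls were untreated cells for no effect and reference antibiotic for full effect; stock transfer was 100 nL into about 80 µL; one replicate is shown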
PrP UTR inh: suppresses PrP 5' UTR mRNA reporter expression | 340,000 compounds, 0.35% hits | AID 488862 | inhibition, % (concentration not given with the values) | cell-based PrP 5' UTR mRNA reporter, plate reader;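 active = every replicate at 50% or more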;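 note: 0 = median of the neutral control wells; tested in H4 reporter cells; numbers are from one replicate; inactives centre near -14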
Mtb hypoxia rep growth: recorded beside Mtb hypoxia rep, whose call it bears; growth inhibition, %; measured here: M. tuberculosis growth (absorbance);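 0% = vehicle and 100% = reference antibiotic; read after six days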
* marks the source's active call; other numbers are inactive results; . = no result given.

SMILES	ugtP null kill	BJeLR viability	Mtb hypoxia rep	Mtb hypoxia rep growth	Bead autofluor	Sa RN4220 lethal	PrP UTR inh
O=C(CSc1nnc(-c2ccccc2)n1Cc1ccccc1)N1CCOCC1	-2	-5	1	2	9234	3.3	-7
O=C1Nc2ccccc2/C1=C/c1nc2ccccc2c(=O)n1-c1ccc(O)cc1	3	-2	6	-2	4694	1.3	-7
CC(=O)Nc1cc(S(=O)(=O)Nc2ccccc2)c(C)cc1C	2	16	.	.	4654	-1.8	-13
CCOC1=C/C(=C/c2c(N)n3nc(CC(=O)N4CCCCC4)sc3nc2=O)C=CC1=O	0	-4	1	1	5438	2.4	-11
CC(=O)c1c(N2CCCC2)[nH]c(-c2ccccc2)nc1=S	15	-1	10	14	10216	-1.0	-19
CCc1ccccc1NC(=O)NCCN1CCCCC1	4	-7	3	16	3565	3.7	-11
CCc1ccc(NC(=O)C2C3CCC(O3)C2C(=O)O)cc1 (configuration not stated)	5	2	3	2	3293	2.8	-28
COC(=O)C1=C(C(=O)OC)[C@@H]2N(C)c3ccc(OC)cc3[C@@]23C[C@@H](C(=O)OC)N(C(=O)c2ccco2)C3=N1	.	3	.	.	3894	.	-16
CCCSCC(=O)Nc1ncc2c(n1)-c1ccccc1CC2	-4	4	9	16	4551	3.3	-5
COc1ccccc1CN1C[C@@H]2C[C@@H](C3=Cc4cc(Cl)ccc4OC3)N3CCC[C@@]23C1=O	-4	-15	1	7	2816	-0.6	-9
COc1ccc(NC(C)=O)cc1NC(C)C(=O)Nc1ccccc1F (configuration not stated)	9	4	18	9	4521	2.4	-8
COc1cccc(N2CCN(C3C4CC5CC(C4)CC3C5)CC2)c1 (configuration not stated)	5	5	1	18	2985	12	-19
CCOC(=O)C1C(C(=O)OC)=C(c2ccc(OC)cc2)c2ccccc2N1S(=O)(=O)C(F)(F)F (configuration not stated)	17	.	5	6	3854	8.5	8
CC(C)C(=O)Nc1ccc(NC(=O)c2ccc(COc3ccccc3)cc2)cc1	3	-9	3	0	3793	7.6	-30
CC1CCCC(NC(=O)CCC(=O)NCc2ccccc2)C1C (configuration not stated)	11	2	4	0	3519	1.8	-20
CCOC(=O)C1=C(O)/C(=C\c2cc(C)n(-c3ccccc3F)c2C)N=C1C	6	3	9	0	3325	10	-1
O=C(CSCCc1ccccn1)Nc1ccc(Br)cn1	16	-7	9	8	23013*	11	-13
Cc1ccc(S(=O)(=O)N2[C@@H](c3cccc(C)c3)C(C(=O)O)=C[C@H]2CC2CCCC2)cc1	-12	.	-3	-2	3034	15	-11
Cc1ccc(NC2C(=O)NC(=O)NC2=O)cc1	5	.	11	4	3391	-0.3	11
COc1cccc(C2CC(=O)Nc3cc4c(cc32)OCCO4)c1OC(C)C (configuration not stated)	6	.	8	8	5919	0.2	-1
COc1ccc(NC(=O)C2=CC(c3cccs3)=NS(=O)(=O)N2C)cc1	-13	7	-6	2	5982	-5.4	-9
O=C(CCNS(=O)(=O)c1cccs1)Nc1nccs1	-4	-4	0	4	6816	1.6	27
CS(=O)(=O)N(CC(=O)N1CCOCC1)c1cc(Cl)ccc1Cl	5	-8	9	1	4043	1.0	-20
O=C(O)c1ccccc1C(=O)NNc1ccc(F)cc1	-4	2	11	14	8736	5.3	-6
COc1ccc(N2Cc3cccc(C(=O)NC(C)CCc4ccco4)c3C2=O)cc1 (configuration not stated)	-16	-1	2	10	5861	0.4	-6

16 entries already listed, ordered by molar mass, low to high:
SMILES	ugtP null kill	BJeLR viability	Mtb hypoxia rep	Mtb hypoxia rep growth	Bead autofluor	Sa RN4220 lethal	PrP UTR inh
Cc1ccc(NC2C(=O)NC(=O)NC2=O)cc1	5	.	11	4	3391	-0.3	11
O=C(O)c1ccccc1C(=O)NNc1ccc(F)cc1	-4	2	11	14	8736	5.3	-6
CCc1ccccc1NC(=O)NCCN1CCCCC1	4	-7	3	16	3565	3.7	-11
CCCSCC(=O)Nc1ncc2c(n1)-c1ccccc1CC2	-4	4	9	16	4551	3.3	-5
CC1CCCC(NC(=O)CCC(=O)NCc2ccccc2)C1C (configuration not stated)	11	2	4	0	3519	1.8	-20
COc1cccc(N2CCN(C3C4CC5CC(C4)CC3C5)CC2)c1 (configuration not stated)	5	5	1	18	2985	12	-19
O=C(CSCCc1ccccn1)Nc1ccc(Br)cn1	16	-7	9	8	23013*	11	-13
CS(=O)(=O)N(CC(=O)N1CCOCC1)c1cc(Cl)ccc1Cl	5	-8	9	1	4043	1.0	-20
CCOC(=O)C1=C(O)/C(=C\c2cc(C)n(-c3ccccc3F)c2C)N=C1C	6	3	9	0	3325	10	-1
COc1cccc(C2CC(=O)Nc3cc4c(cc32)OCCO4)c1OC(C)C (configuration not stated)	6	.	8	8	5919	0.2	-1
COc1ccc(NC(=O)C2=CC(c3cccs3)=NS(=O)(=O)N2C)cc1	-13	7	-6	2	5982	-5.4	-9
O=C1Nc2ccccc2/C1=C/c1nc2ccccc2c(=O)n1-c1ccc(O)cc1	3	-2	6	-2	4694	1.3	-7
CC(C)C(=O)Nc1ccc(NC(=O)c2ccc(COc3ccccc3)cc2)cc1	3	-9	3	0	3793	7.6	-30
O=C(CSc1nnc(-c2ccccc2)n1Cc1ccccc1)N1CCOCC1	-2	-5	1	2	9234	3.3	-7
Cc1ccc(S(=O)(=O)N2[C@@H](c3cccc(C)c3)C(C(=O)O)=C[C@H]2CC2CCCC2)cc1	-12	.	-3	-2	3034	15	-11
CCOC1=C/C(=C/c2c(N)n3nc(CC(=O)N4CCCCC4)sc3nc2=O)C=CC1=O	0	-4	1	1	5438	2.4	-11

Remaining list, next part
SMILES	ugtP null kill	BJeLR viability	Mtb hypoxia rep	Mtb hypoxia rep growth	Bead autofluor	Sa RN4220 lethal	PrP UTR inh
COc1cccc(NC(=O)COc2cc(O)c3c(c2)OC(C)(C)CC3=O)c1	3	-7	.	.	5692	9.4	-43
Cc1ccc(NC(=O)c2oc3ccccc3c2NC(=O)c2ccc3c(c2)OCO3)cc1	-6	-13	0	5	20506*	-2.8	-53
CCc1noc(C)c1C(=O)N1CCN(S(=O)(=O)c2ccccc2C(F)(F)F)CC1	2	.	8	2	3546	5.8	-7
CCC(C)NCCCOc1ccc(C)cc1OC (configuration not stated)	3	0	13	-4	3112	0.8	-20
Cc1ccc(C)c(OCCC(=O)OCC(=O)NC2CCS(=O)(=O)C2)c1 (configuration not stated)	1	-5	14	6	5676	6.7	-19
O=C(CN1CCN(C(=O)c2cncn2-c2ccc(F)cc2)CC1)Nc1ccccc1C(F)(F)F	1	.	-4	7	8857	-0.8	4
CNC(=S)N(CCc1c(C)[nH]c2ccc(C)cc12)Cc1ccc(OC)c(OC)c1	7	-1	0	4	6547	20	-14
COc1cc(OC)cc(-c2nc(-c3ccc(Br)cc3)no2)c1	-1	16	-4	6	11632	-4.7	-18
O=C(NCCc1cccc(Cl)c1)c1cccc([N+](=O)[O-])c1	-9	-3	7	6	2430	3.3	-34
Cc1cc(C(=O)CSc2cccc[n+]2[O-])c(C)n1-c1ccccc1	2	10	18	16	5003	8.7	-10
O=C(CCN1C(=O)c2ccccc2C1=O)Nc1sc2c(c1C(=O)NCc1ccco1)CCCC2	-8	0	8	9	23594*	4.1	-10
CCCCN(CC)Cc1ccc(CNC(=O)Nc2ccc(F)cc2)o1	-2	-1	6	9	11271	0.6	-13
CCOc1ccc(NC(=O)CCC(=O)c2ccc(OC)cc2)cc1	15	-5	4	-2	.	1.6	-4
Cc1ccc(NC(=O)C2CC(=O)Nc3ncnn32)cc1Cl (configuration not stated)	-15	-6	-3	-3	4813	2.3	-22
CCCCCCOc1ccc(N2C(=O)CC(SCCN)C2=O)cc1 (configuration not stated)	-4	18	11	11	3822	5.3	-21
COC(=O)C1=C(C)N(c2cccc(C)c2)C(=O)/C1=C\c1cccs1	8	9	.	.	3397	-1.9	5
Cc1cccc(OCC(=O)N=Nc2c(O)[nH]c3ccc([N+](=O)[O-])cc23)c1	-8	-5	-7	4	.	0.6	.
C=CCn1cc(F)c(=O)n(CC=C)c1=O	4	5	10	0	4551	4.7	-7
Cc1nnc(NC(=O)c2c(F)cccc2F)s1	7	7	9	3	5210	-9.6	-23
O=C(NCCO[N+](=O)[O-])c1cccnc1	4	-2	-1	2	4223	4.5	-8
CCc1sc(C(=O)NNC(=O)c2cncc(Br)c2)cc1C	5	.	8	14	3294	-2.5	1
CCc1ccc(C=NNC(=O)c2c[nH]c3ccccc23)s1	-17	.	11	10	.	0.2	.
CCN(CC)CCn1c(NCc2cccc(OC)c2OC)nc2ccccc21	-4	5	9	13	3385	-16	-11
Nc1ccccc1SCc1cc([N+](=O)[O-])cc2c1OCOC2	-4	-7	4	15	22037*	11	-30
COc1ccc(NC(=S)NC2CC3CCCC(C2)N3C2CC2)cc1 (configuration not stated)	-4	-7	15	10	5020	2.2	-14
(cont.)
SMILES	ugtP null kill	BJeLR viability	Mtb hypoxia rep	Mtb hypoxia rep growth	Bead autofluor	Sa RN4220 lethal	PrP UTR inh
Cc1ccc(NC(=O)CCC(=O)NNC(=O)NC23CC4CC(CC(C4)C2)C3)cc1C	-2	-2	0	9	4234	1.2	-26
CCc1ccc(N2CC(C(=O)Nc3cccc(C(=O)NC4CC4)c3)CC2=O)cc1 (configuration not stated)	9	.	25	5	2907	1.9	-5
CCCSc1nc(C)c(-c2csc(C(C#N)=C3CCCC3)n2)cc1C#N	3	-13	11	3	9992	5.7	-12
CC(=O)/C(N=Nc1ccc2c(c1)OCCO2)=C(\C)O	-1	7	-3	18	5570	6.5	4
Cc1ccc2c(c1)N(CC(=O)NCC1CCCO1)C(=O)C(C)O2 (configuration not stated)	-3	1	3	2	4134	-0.4	-46
Cc1ccccc1COc1ccc(-c2nn[nH]n2)cc1	2	-5	1	22	3524	-1.4	-21
Cc1c(Cl)cccc1-n1nnnc1-c1cccs1	-2	-2	3	1	9595	3.9	-7
C/C(=N/N1CCN(Cc2cccc3ccccc23)CC1)c1ccco1	.	-2	.	.	4271	.	-25
COc1ccccc1N1CCN(C(=O)c2oc3cc(C)c(C)cc3c2C)CC1	-4	5	.	.	4560	4.6	-3
CCCCCCCc1c(O)nc(SCC(=O)O)[nH]c1=O	3	-7	4	1	6365	1.8	-19
COC(=O)C(CCSC)NC(=O)Cn1ncc2c(=O)oc3ccccc3c21 (configuration not stated)	-2	-2	5	11	6059	-5.7	-37
COc1ccc(/C=N/N2CCOCC2)cc1COc1ccc(F)cc1	.	5	.	.	2736	.	-14
O=C(Nc1cccc(Br)c1)c1c(O)c2c(n(Cc3ccccc3)c1=O)CCCC2	2	-2	-3	3	.	0.2	.
Cc1ccc(OCC(=O)N/N=C/c2ccncc2)cc1	.	-8	.	.	2321	.	-6
CCS(=O)(=O)Nc1ccc(C2=NN(S(=O)(=O)c3ccc(F)cc3)C(c3ccco3)C2)cc1 (configuration not stated)	-12	11	2	-3	17142*	2.7	8
Cc1c(C(=O)c2no[n+]([O-])c2C(=O)c2cnn(C)c2C)cnn1C	9	5	5	13	2872	-4.6	-23
CC(=O)c1ccc(NC(=O)c2cc(Cl)sc2Cl)cc1	6	-13	13	1	2689	2.3	-68
Cc1cc(C)nc(NN=Cc2ccccc2OCc2cccc(Br)c2)n1	11	.	9	2	.	17	.
CCSc1nnc(NC(=O)CSc2nc(C)cc(C)n2)s1	3	-1	.	.	2952	-4.2	-20
O=C(CCC1CCCC1)Nc1ccccc1-c1ccccc1	7	9	-3	0	1974	6.6	-9
O=C(c1cc(-c2ccncc2)nc2ccccc12)N1CCOCC1	1	.	8	6	4373	2.5	-19
Cc1ccc(/C=N/NC(=O)Cc2cccs2)o1	.	7	.	.	2597	.	-23
Cn1c(=O)c2c(ncn2CC(=O)NN=Cc2ccco2)n(C)c1=O	2	.	-5	2	.	5.6	.
Cc1cc(=O)oc2cc(OC(C)C(=O)N3CCCc4ccccc43)ccc12 (configuration not stated)	1	-2	.	.	3780	4.4	-19

Screening data as filed in PubChem BioAssay.
